# Screens: PubChem, Broad Institute
# Calb FLC = C. albicans growth modulation with fluconazole; growth inhibition, % (concentration not given with the values); AID 1979; C. albicans CaCi-2 (fluconazole-resistant clinical isolate) + fluconazole, Alamar Blue growth, 48 h; 300,000 compounds, 0.57% hits;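 active means most replicates above 75%; inconclusive means exactly half above 75%; inactive means most below 75%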;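 further: all wells also contain fluconazole at 8 µg/ml as a sub-toxic cotreatment; 0% = median of DMSO wells and 100% = median of geldanamycin control wells; wells of about 8 µL received 7.5 nL stock; the first replicate is given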
# Beta cell apopt = blocks beta cell apoptosis; 300,000 compounds, 0.8% hits; protection from apoptosis, % (no concentration beside the values); INS-1E cytokine-induced death, ATP luminescence, 48 h; percent of positive-control rescue, neutral wells zero;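 active means all replicates at 75% or more, or half of them and the mean; inconclusive means half reach 75% but not the mean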;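 further: 0% = cytokine-treated negative control wells and 100% = positive control rescue; higher means more ATP so stronger rescue from cytokine killing; wells of about 40 µL received 100 nL stock; the first replicate is given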
# RanGTP-Imp inh = inhibitors of RanGTP-importin-beta interaction, primary screen, biochemical, FRET, CFP-Ran, YFP-importin-beta, homogeneous | 300,000 compounds, 1.1% hits | inhibition, % (no concentration beside the values) | cell-free CFP-Ran/YFP-importin-beta FRET ratio;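 active means most replicates above 15%; inconclusive means exactly half above 15%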;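 further: 0% = DMSO wells and 100% = Ran loaded with GDP instead of GTP; wells of about 40 µL received 100 nL stock; the first replicate is given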
# ALR inh = inhibitors of human sulfhydryl oxidase ALR; inhibition, % (concentration not given with the values); purified ALR, DTT oxidation, H2O2 HRP-luminol luminescence; AID 485317; 290,000 compounds, 3.8% hits;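 active means mean and each replicate at 75% or more; inconclusive means only one of the two met; inactive means neither met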;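 further: stock transfer was 7.5 nL into about 7.5 µL; 0% = neutral wells and 100% = wells with inactivated enzyme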
# Target sequence (P55789 whole entry, looked up): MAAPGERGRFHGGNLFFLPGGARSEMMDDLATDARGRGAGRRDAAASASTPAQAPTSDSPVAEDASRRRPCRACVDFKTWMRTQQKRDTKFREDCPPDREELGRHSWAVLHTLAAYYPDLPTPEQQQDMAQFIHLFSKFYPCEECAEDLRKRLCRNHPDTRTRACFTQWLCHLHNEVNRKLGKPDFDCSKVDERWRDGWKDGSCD
# rRNA inh HTS = inhibits bacterial ribosomal RNA function over humanized ribosomes. 350,000 compounds, 1.6% hits. GFP signal change (wild-type ribosome), % (test concentration not listed). E. coli WT GFP vs humanized-ribosome RFP mutants, fluorescence, 24 h; hits give low values; DMSO median 0, no signal -100;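 active means significant combined selectivity score with lowered wild-type GFP, culture density cut under 30%, mutant RFP and density less affected; inactive means any of these conditions unmet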; further: one replicate is shown; some compounds called inactive have numbers as strong as hits
# T cruzi repl = T. cruzi replication inhibition; inhibition, % (no concentration beside the values); T. cruzi beta-gal in NIH3T3, luminescence, 90 h; 300,000 compounds, 1.4% hits;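 active means mean inhibition across valid replicates above about 55%, limit read from the data; inconclusive means mean below that limit but half or more replicates reach it; inactive means mean below it, under half of replicates reach it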;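 further: signal also drops with host cell toxicity which is not excluded here; 0% = plate median of DMSO wells and 100% = zero luminescence signal; higher percent means less beta-gal luminescence so fewer parasites; stock transfer was 50 nL into about 50 µL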
# FGF22 binding = binders of recombinant human FGF22 by thermal shift. Q9HCT0. calls only at 9.99 µM. AID 651658. 340,000 compounds, 1.5% hits. SYPRO orange fluorescence; percent of sucrose octasulfate shift, DMSO zero;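 active means melting point raised past a set limit in the mean and every replicate; inconclusive means no clear call; three in four hits are not shown here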
# Target sequence (Q9HCT0 whole entry, looked up): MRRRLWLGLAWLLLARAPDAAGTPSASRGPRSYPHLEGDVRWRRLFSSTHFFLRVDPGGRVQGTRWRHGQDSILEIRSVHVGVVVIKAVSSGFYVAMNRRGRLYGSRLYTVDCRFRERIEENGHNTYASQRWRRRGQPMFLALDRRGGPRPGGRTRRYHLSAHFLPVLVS
# AF4-AF9 inh = MLL-AF4/AF9 protein interaction inhibition | AlphaScreen, biotin-AF4 peptide binding to FLAG-AF9 | 350,000 compounds, 0.47% hits | inhibition, % at 10 µM;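 active means every replicate reaching a set inhibition limit, whatever the replicate mean, cut at about 25% in these data; inconclusive means mean inhibition reaches that limit but some replicates miss it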;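 further: 0% = plate neutral control median and 100% = total signal loss; the record names both 10 and 1 µM as test concentration; the first replicate is given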
# Target sequence (P42568 whole entry, looked up): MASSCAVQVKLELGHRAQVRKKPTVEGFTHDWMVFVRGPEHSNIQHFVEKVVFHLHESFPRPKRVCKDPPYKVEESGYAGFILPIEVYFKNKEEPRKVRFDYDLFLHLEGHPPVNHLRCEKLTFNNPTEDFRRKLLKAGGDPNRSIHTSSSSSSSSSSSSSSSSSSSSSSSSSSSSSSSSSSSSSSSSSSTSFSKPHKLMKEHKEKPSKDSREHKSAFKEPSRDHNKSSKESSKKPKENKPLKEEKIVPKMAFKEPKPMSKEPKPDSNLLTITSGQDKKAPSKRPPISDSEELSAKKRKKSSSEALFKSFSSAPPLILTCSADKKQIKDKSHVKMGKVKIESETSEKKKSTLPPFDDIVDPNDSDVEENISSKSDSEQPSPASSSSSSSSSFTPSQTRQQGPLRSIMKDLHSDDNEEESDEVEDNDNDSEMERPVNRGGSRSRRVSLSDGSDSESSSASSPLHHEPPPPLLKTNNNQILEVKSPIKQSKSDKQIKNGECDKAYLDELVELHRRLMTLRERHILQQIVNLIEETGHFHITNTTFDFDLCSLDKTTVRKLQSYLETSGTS
# rRNA inh HTS OD600 = recorded beside rRNA inh HTS, whose call it bears; OD600 change, %; measured here: OD600 growth;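 optical density of the mix in the first replicate; 0 = DMSO median and -100 = no signal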
# rRNA inh HTS RFP = second read-out of rRNA inh HTS, no call of its own (marks repeat the call); RFP signal change, %; measured here: RFP humanized mutant strains;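 first replicate; 0 = DMSO median and -100 = no signal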
# An asterisk follows results filed as active; i = inactive; ? = inconclusive; nt = not tested or not shown; & = joins results of further samples.
SMILES,ALR inh,Calb FLC,RanGTP-Imp inh,rRNA inh HTS RFP,T cruzi repl,AF4-AF9 inh,Beta cell apopt,rRNA inh HTS OD600,FGF22 binding,rRNA inh HTS
O=C(NC1CCCc2ccccc21)c1ccccn1 (stereo not drawn),1,3,?,0.6,-17,-13,-4,3,i,1
CCn1cc(Cl)c(C(=O)Nc2ccccc2C(N)=O)n1,4,-7,2.9,-13,2,-1.3,4,6,i,3
COc1ccc(N2CCN(CCNC(=O)Nc3cc(Cl)ccc3OC)CC2)cc1,5,1,0.8,5.6,1,1.1,-3,-7,i,-5
CCCCCCCNC(=O)CN1C(=O)CSc2ccc(S(=O)(=O)N3CCOCC3)cc21,0,-13,1.0,-1.1,-1,0.7,8,17,i,4
CCS(=O)(=O)N1CCN=C1SCc1cccnc1,98*,-20,4.5,-0.4,-31,-1.8,-1,6,i,2
COc1ccccc1-c1nnc(NC(=O)C(C)C)s1,-2,3,-2.6,nt,10,nt,0,nt,nt,nt
Cc1c(Cc2ccccc2)c(NCCN(C)C)n2c(nc3ccccc32)c1C#N,4,7,26*,2.1,56*,-3.3,10,0,nt,-2
CCOC(=O)[C@@H]1[C@H]2COc3ccc(Br)cc3[C@@H]2N2C(=O)N(c3ccc(Cl)cc3)C(=O)[C@@]12C,7,nt,nt,-4.1,nt,nt,-7,7,i,7
CC1CCCC(NC(=O)NC(=O)CCl)C1C (stereo not drawn),50,10,?,1.4,-18,-4.7,-4,12,i,18
Cc1oc(C)c(S(=O)(=O)NCc2cccs2)c1C(=O)O,0,5,2.5,-0.5,-13,-0.9,-2,10,i,6
CSc1ncc(Cl)c(C(=O)Nc2cccc(Cl)c2)n1,-5,-7,-6.0,-6.0,-11,5.1,2,-25,i,-23
Cc1cccc(-c2nc(Nc3ccc(O)cc3)c3ccccc3n2)c1,6,14,0.4,-18,14,3.9,-3,-77,i,-57
O=[N+]([O-])c1cc([N+](=O)[O-])c(Oc2cncc(Cl)c2)cc1NN1CCCCC1,8,-9,0.9,-4.2,1,0.9,7,21,i,12
CCOC(=O)c1cc(-c2ccc(OC)cc2)nn1-c1ccc(C(=O)O)cc1,33,2,2.2,0.5,-2,-2.8,-3,-12,i,-4
CCN(CC)CCNc1ccc(Cl)cc1[N+](=O)[O-],nt,-11,-4.0,nt,33,nt,-2,nt,nt,nt
COc1ccc(OC)c(/C=N/NC(=O)CCc2c(C)n[nH]c2C)c1,nt,-2,2.2,6.6,-10,2.4,-7,15,i,14
Cc1ccc(C)c(S(=O)(=O)N/N=C/c2ccc(C(=O)O)cc2)c1,-3,-15,-0.5,nt,-2,nt,-7,nt,nt,nt
CC(C)NCCCCOc1ccccc1-c1ccccc1,2,-4,1.2,nt,-8,nt,-4,nt,nt,nt
CCOC(=O)COc1c(-c2ccc(OC)cc2)oc2ccccc2c1=O,-2,-10,-3.3,nt,15,nt,-6,nt,nt,nt
COC(=O)C1=C(CSc2nnnn2C)NC(=O)NC1c1cc(C)ccc1C (stereo not drawn),nt,-3,4.0,nt,-4,nt,1,nt,nt,nt
O=C(O)COc1ccc(Nc2ccccc2)cc1,99*,-5,-3.3,1.5,1,8.3,-5,15,i,8
S=c1[nH]nc(Cn2nnc3ccccc32)n1-c1ccc(Cl)cc1,5,-4,-1.0,-0.1,-27,-6.3,-9,3,i,9
O=C(COc1ccccc1)Nc1sc2c(c1C(=O)NCc1cccnc1)CCCC2,-5,8,-0.4,nt,44,nt,10,nt,nt,nt
COc1cccc2c(=O)n(CC(=O)Nc3ccc(F)cc3F)ccc12,nt,-5,-1.2,0.4,1,3.2,nt,4,i,4
Cc1ccc(C)c(S(=O)(=O)N2CCN(C(=O)[C@H](Cc3ccccc3)NC(=O)c3ccco3)CC2)c1,-3,nt,nt,1.2,nt,-2.0,-4,1,i,-5
CCOc1ccc(NC(=O)C(=O)N/N=C/c2ccccc2F)cc1,0,-33,3.1,0.1,-3,0.5,-4,18,i,23
CN(CC(=O)Nc1cccc(F)c1)C(=O)c1ccc2c(c1)NC(=O)CS2,-1,nt,nt,0.0,nt,-0.4,2,1,i,-6
Cc1cc(C)cc(NC(=S)NC2CC3CCCC(C2)N3CC(C)C)c1 (stereo not drawn),-7,5,-1.2,-0.9,-16,1.7,-3,6,i,15
N#CCO/N=C/C(=O)Nc1ccc(F)cc1F,-25,-10,0.2,nt,-23,0.1,1,nt,i,nt
O=C(Nc1ccc(-c2nc3cccnc3s2)cc1)c1cccnc1Cl,-4,9,1.6,1.1,-1,-0.4,-8,-4,i,-4
CN(CC(=O)Nc1ccccc1Br)C(=O)CN(C)C1CCCCC1,1,nt,nt,0.1,nt,0.9,-1,11,i,5
CC1(NC(=O)CC(c2ccccc2)(c2ccccc2)c2ccccc2)CCN(CCCc2ccccc2)C1=O (stereo not drawn),-9,nt,nt,2.4,nt,-18,31,24,i,7
COc1cc(OC)c(OC)cc1/C=N/NC(=O)c1cc(-c2cccn2C)n[nH]1,-24,16,-0.4,nt,-33,nt,-2,nt,nt,nt
COCCCN1CN(Cc2ccco2)CNC1=S,-1,-5,-1.5,1.3,-17,2.0,-1,-3,i,9
CCC(C)(C)NC(=O)C(c1ccccc1F)N(Cc1ccco1)C(=O)c1csnn1 (stereo not drawn),nt,-7,2.4,nt,9,nt,-5,nt,nt,nt
CCOC(=O)c1c(C)[nH]c(C(=O)COC(=O)c2ccco2)c1C,0,nt,nt,4.7,nt,3.7,1,7,i,5
Cc1ccc(C)c(SCC(=O)OCC(=O)Nc2ccc(S(=O)(=O)N3CCOCC3)cc2)c1,-3,5,8.9,nt,-25,nt,0,nt,nt,nt
Cc1c(NC(=O)c2c(O)c3ccccc3n(C)c2=O)c(=O)n(-c2ccccc2)n1C,-10,18,-2.9,1.4,-2,-0.6,-5,-1,nt,8
CCOc1ccc(NC(=O)NNC(=O)c2cc3ccccc3cc2O)cc1,1,86*,-4.4,-2.3,3,-2.5,-9,2,i,6
Cc1oc(-c2ccccc2)cc1C(=O)Nc1ccc2ccccc2c1,-6,2,0.8,nt,14,nt,nt,nt,nt,nt
N#Cc1c(N)oc(-c2ccccc2)c1-c1ccccc1,-1,-4,-0.1,nt,-3,nt,-5,nt,nt,nt
Nc1nnc(CCS(=O)(=O)c2ccc(Br)cc2)s1,0,19,0.1,-5.6,-17,0.2,3,11,i,8
Cc1cc(C)c(-c2c(O)c3cnn(-c4ccccc4)c3[nH]c2=O)c(C)c1,0,30,1.0,-15,-6,-1.0,-4,-7,i,-8
COc1cc(NC(=O)CNc2ccc(Cl)c(S(=O)(=O)N3CCOCC3)c2)cc(OC)c1,2,nt,nt,1.3,nt,1.2,0,2,i,1
O=C(Nc1ccnn1C1CCN(C(=O)c2cccc(Cl)c2)CC1)C1CC1,0,32,0.3,0.1,-6,1.2,-4,17,i,11
O=C1CCCN1c1ccc(S(=O)(=O)NCCOc2ccccc2)cc1,-5,-15,-0.4,nt,5,nt,2,nt,nt,nt
Cc1cc(OCC(=O)NNC(=O)c2cccc(F)c2)ccc1Cl,nt,nt,nt,1.5,nt,0.0,2,3,i,6
COC(=O)C1=C(C(=O)OC)SC2(S1)C(C(=O)OC)=C(C(=O)OC)SC1=C2c2cc(C)cc(C)c2NC1(C)C,-1,-8,6.5,nt,3,nt,nt,nt,nt,nt
COc1ccc(CC(NC(C)=O)C(=O)NC2CCN(C(=O)c3ccc([N+](=O)[O-])cc3)CC2)cc1OC (stereo not drawn),-11,-6,2.0,-3.8,-6,2.7,-7,8,i,11
CCn1cc(C(=O)NP(=O)(Nc2ccc(C)cc2)Nc2ccc(C)cc2)c2ccccc21,-5,-18,3.6,0.3,-14,-7.4,0,5,i,11
Cn1nnnc1SCCNS(=O)(=O)c1ccccc1,-9,-1,-3.5,nt,-18,nt,0,nt,nt,nt
COCCCn1c(=O)/c(=C\c2ccccc2OC(C)C)s/c1=C(/C#N)C(=O)Nc1ccc(C(=O)O)cc1,7,9,-1.4,-2.7,7,2.9,10,0,i,15
COc1ccc(NC(=O)Nc2cccc3c2O[C@H](CN(C)C(=O)NC2CCCCC2)[C@@H](C)CN([C@H](C)CO)C3=O)cc1,-5,nt,nt,-1.9&-1.4,nt,-1.6&2.2,2,8&6,i,0&2
CCOc1ccc2nc(SCc3ccc(OC)cc3)sc2c1,12,-12,1.4,nt,-23,nt,-1,nt,nt,nt
Cc1ccc(-c2nc3cc(NS(=O)(=O)c4ccc(C)cc4)ccc3o2)cc1,-9,-5,1.1,nt,29,nt,-3,nt,nt,nt
CC(=O)Nc1ccc(NS(=O)(=O)c2ccccc2)cc1,-8,-9,0.3,2.1,-13,-1.1,1,2,i,13
Cc1ccc(-c2cc(C(F)(F)F)n3nc(C(=O)Nc4ccon4)cc3n2)cc1C,2,1,4.3,1.2,-16,-21,1,5,i,9
O=C(Nc1ccc(Cl)cc1)OCc1cc(-c2ccccc2)on1,-24,-9,4.1,nt,13,nt,-2,nt,nt,nt
CN(C)S(=O)(=O)c1cc(NC(=O)COC(=O)CCc2ccccc2)ccc1Cl,-8,-4,-1.3,2.6,-9,1.2,1,0,i,-2
O=C1c2ccc(Oc3ccc([N+](=O)[O-])cc3)cc2C(=O)N1c1ccncc1,-13,9,7.2,2.1,2,-1.5,-3,7,i,3

# (list continues)
SMILES,ALR inh,Calb FLC,RanGTP-Imp inh,rRNA inh HTS RFP,T cruzi repl,AF4-AF9 inh,Beta cell apopt,rRNA inh HTS OD600,FGF22 binding,rRNA inh HTS
CCOC(=O)NC(=O)CSc1nnc(C)s1,4,-1,2.1,nt,?,nt,2,nt,nt,nt
COCC(=O)NC1CCN(S(=O)(=O)c2cccc(C(C)=O)c2)CC1,3,-9,4.1,0.3,-8,-22,6,19,nt,22
CCOC(=O)Nc1ccc2c(CN3CCC(C(=O)OC)CC3)cc(=O)oc2c1,nt,18,-5.9,1.4,4,-2.7,-4,11,i,3
CC(C)(CC(=O)O)CC(=O)N1CCCN(c2nccc(C(F)(F)F)n2)CC1,21,8,0.9,1.4,-4,1.2,2,18,i,8
Nc1c(-c2ccc(Cl)cc2)cnn1C1CCS(=O)(=O)C1 (stereo not drawn),50,3,-6.5,nt,1,nt,6,nt,nt,nt
Cc1cccc(NC(=O)c2ccc(N3C(=O)C4CCCCC4C3=O)cc2)c1C (stereo not drawn),-14,8,-3.5,0.9,-16,2.4,0,-8,i,-11
Cc1ccc(OCC(=O)N/N=C/C=C/c2ccco2)cc1,-18,-6,-2.8,nt,-5,nt,nt,nt,nt,nt
NC(=O)C1Cc2ccccc2CN1S(=O)(=O)c1cccs1 (stereo not drawn),-2,2,nt,2.1,-8,-3.1,1,6,i,1
O=C(Cn1nc(C(=O)O)c2ccccc2c1=O)Nc1cc(S(=O)(=O)N2CCCCC2)ccc1Cl,-23,nt,nt,0.9,nt,1.8,-3,17,i,12
COc1ccc(S(=O)(=O)NCC(=O)Nc2cccc(C)c2C)cc1OC,-7,-14,0.9,-2.9,-10,-2.3,-4,-3,i,8
C=C(C)Cn1c(C)cc(C)c(S(=O)(=O)c2cccc(C)c2)c1=O,-2,8,4.2,-12,10,-0.5,2,-50,i,-40

# A portion of the library; the hit share may differ from the screen's.
